# VACV mCherry inh: vaccinia inhibition (mCherry reporter). AID 720579. Vaccinia virus mCherry reporter infection, fluorescence; about a quarter of the inactives have no number. hit rate 0.63% among 310,000. Potency, µM (series often up to 36.5 µM), for the others: at the top dose activity change, negative = inhibition, usual class: inhibitors; active = well fitted inhibition curve with a large enough effect; inconclusive = small, poorly fitted or top-dose-only effect; inactive = no such curve, though single readings can be large or run the other way; tested in A549 cells; note: nearly all actives have a fitted effect of over 35% in size; inactives centre near -10
# VACV Venus inh: inhibitors of vaccinia virus (Venus reporter). AID 720580. Potency, µM (top dose mostly 36.5 µM), without a hit: at the highest dose activity change, negative = inhibition, most hits filed as inhibitors. hit rate 0.46% among 330,000. Vaccinia virus Venus reporter expression, fluorescence; active means well fitted inhibition curve with a large enough effect; inconclusive means small, poorly fitted or top-dose-only effect; inactive means no such curve, though single readings can be large or run the other way; tested in A549 cells; note: nearly all actives have a fitted effect of over 30% in size; inactives centre near -10
# Starred values were filed as active, the others as inactive; i = inactive; ? = inconclusive; . = no result given; [ ] = another dose, or the depositor's remark. % is set by controls: 0 for no effect and ±100 for the full control effect; potency is the fitted concentration of half-maximal effect.
# Preview (two entries):
# Fields – VACV mCherry inh | VACV Venus inh
FC(F)(F)c1ccc(-c2cccc3c2C2CC3CCN2C(=S)NCCc2ccccc2)cc1 (centres undefined)
 : 9.8% | -0.2%
COc1ccc(Nc2nnc(-c3cc4cc(Cl)ccc4oc3=O)s2)cc1
 : -6.7% | 0.8%

# The list itself, from the start:
# Fields – VACV mCherry inh | VACV Venus inh
FC(F)(F)c1ccc(-c2cccc3c2C2CC3CCN2C(=S)NCCc2ccccc2)cc1 (centres undefined)
 : 9.8% | -0.2%
COc1ccc(Nc2nnc(-c3cc4cc(Cl)ccc4oc3=O)s2)cc1
 : -6.7% | 0.8%
O=C(Nc1cccc2c1CCCC2)c1ccncc1
 : -9.5% | -11.9%
O=C1CC2(CCN(C(=O)c3ccccc3Cl)CC2)Oc2ccccc21
 : ? | -4.1%
O=C(NC(CCl)c1ccccc1)c1ccc(Cl)cc1 (centres undefined)
 : 2.5% | -4.1%
O=C(CSc1nc(-c2ccccc2)cs1)NCc1ccco1
 : . | -20.1%
C[C@H]1NC(=O)[C@]2(C)[C@@H](c3ccccc3)[C@H]3COc4ccccc4[C@H]3N2C1=O
 : ? | -19.2%
CC1=C(C(=O)Nc2cccc(C(=O)NC3CCCCC3C)c2)SCCO1 (centres undefined)
 : -8.7%[7.34 µM] | 0.5%[7.34 µM]
CC(C)(C)NC(=O)NC(=O)COC(=O)Cc1ccc(Cl)cc1Cl
 : i | -5.2%
CCN(CC)S(=O)(=O)c1cc([N+](=O)[O-])ccc1NNC(=O)Nc1ccccc1OC
 : -7.1% | -19.3%
CCOc1ccc(NS(=O)(=O)c2cc(Br)cc3c2N(C(=O)C2CC2)CC3)cc1
 : -8.3% | -5.6%
COc1cc(C(=O)NNC(=O)Nc2ccc([N+](=O)[O-])cc2)cc(OC)c1OC
 : -2.4% | -18.3%
Cn1c2ccccc2c2cc(C(=O)OCC(=O)N3CC(=O)Nc4ccccc43)sc21
 : -23.4% | -15.1%
O=c1cc(CN2CCc3ccccc3C2)nc2sccn12
 : -11.0% | -20.4%
Cc1ccc(Cn2c(CNS(=O)(=O)c3ccc(Cl)s3)nc3cccnc32)cc1
 : -2.0% | -15.1%
CC(=O)[C@@]1(O)CC[C@H]2[C@@H]3C[C@H](C)C4=CC(=O)C=C[C@]4(C)[C@@]3(F)[C@@H](O)C[C@@]21C
 : -13.1% | -11.9%
COc1ccc(NS(=O)(=O)c2ccc(C)c(C(=O)N3CCC3)c2)cc1
 : -18.5% | -7.2%
CN(C)c1ccccc1C(=O)N1CCCC(C(=O)c2ccc3ccccc3c2)C1 (centres undefined)
 : ? | ?
O=C(c1cncs1)N1CCCC(CNS(=O)(=O)c2cccs2)C1 (centres undefined)
 : i | 2.7%
Cc1cn2c(=O)cc(COc3ccc(NC(=O)c4ccccc4C)cc3)nc2s1
 : -6.2% | -1.2%
CCCOC(=O)c1c(NC(=O)c2nc3ncccn3n2)sc(C(N)=O)c1C
 : -1.0% | 1.1%
O=C(COC(=O)c1ccc(OC(F)(F)F)cc1)Nc1ncccn1
 : i | -4.0%
Cc1cccc(S(=O)(=O)N(C)C[C@H]2OCc3cn(nn3)CCCC(=O)N([C@@H](C)CO)C[C@@H]2C)c1
 : -6.1% | -8.2%
COc1ccc(/C=N/NC(=O)c2ccccc2O)cc1COc1ccccn1
 : ? | -10.8%
COc1ccc(-n2c(C)nnc2SCC(=O)N2C(C)CCCC2C)cc1 (centres undefined)
 : -0.5% | -6.8%
O=C(Nc1ccc2oc(-c3ccccc3F)nc2c1)c1ncn[nH]1
 : ? | -22.3%
O=C(CCC1CCCC1)c1c(O)c2ccccc2oc1=O
 : ? | ?
COc1ccc(CN2CCCCC2c2cccnc2)c(OC)c1C (centres undefined)
 : i | -7.9%
O=C1C(c2ccc(F)cc2)N(CCc2ccccc2)C(=O)CN1C1CCCCC1 (centres undefined)
 : -7.1% | -9.7%
CCOC(=O)C1=C(CN2CCCCC2)NC(=O)NC1c1ccc(OC)cc1 (centres undefined)
 : i | -13.2%
COCC(C)n1c(C)cc(C(=O)COc2ccc(C)nc2[N+](=O)[O-])c1C (centres undefined)
 : 7.4% | -16.4%
CCOc1ccc(NC(=O)CSc2nnc(C3CC3)n2C)cc1
 : i | -7.4%
Cc1cccc(N2C(=O)CC(N3CCN(c4ccccn4)CC3)C2=O)c1 (centres undefined)
 : i | 11.2%
COc1cccc(-c2nn(C)c3sc(C(=O)NCCc4cccc(C)c4)cc23)c1
 : ? | -28.7%
Cc1sc(NC(=O)c2cc3ccccc3oc2=O)c(C(=O)OC(C)C)c1-c1ccccc1
 : -12.1% | 0.6%
COc1ccc(N2CCN(C(=O)Cn3cnc4nc5c(cc4c3=O)CCCC5)CC2)cc1
 : -13.2% | 16.0%
CN1CCN(C2=C(NS(=O)(=O)c3cccs3)C(=O)c3ccccc3C2=O)CC1
 : 17.8µM* | 10µM*
COc1ccccc1NC(=O)N1CCCC1C(=O)NCc1cccs1 (centres undefined)
 : -3.0% | -2.5%
CC(=O)NCCNc1nc2cc(-c3cccc(C(F)(F)F)c3)sc2c(=O)n1C
 : ? | -22.7%
O=C(COC(=O)c1ccccc1)NCc1cccs1
 : -19.4% | -8.2%
NNc1ccc2c(C(F)(F)F)cc(C(F)(F)F)nc2n1
 : -6.2% | -5.0%
CC(C)c1c(C(=O)N/N=C2\CCc3ccccc32)nnn1-c1nonc1N
 : -3.3% | 0.3%
CCCNC(=O)C1(C)CCCN(Cc2cccs2)C1 (centres undefined)
 : i | 9.3%
CSCCC(NC(=O)c1ccccc1)C(=O)OCC(=O)c1ccc[nH]1 (centres undefined)
 : i | -9.5%
COc1ccc(OC)c(NC(=O)c2cc(-c3cc(C)c(C)cc3O)n[nH]2)c1
 : -12.8% | ?
Cc1ccccc1NC(=O)c1oc(=O)c2ccccc2c1-c1ccccc1
 : -9.1% | -6.2%
COc1nccc(Nc2ccccc2)c1C#N
 : . | -9.3%
CCCCCCC/C=N/Nc1nnc(Cc2ccccc2)c(=O)[nH]1
 : i | 4.7%
CCOC(=O)N1CCN(C(=O)CCn2nc(-c3ccc(Cl)cc3)ccc2=O)CC1
 : -15.1%[1.46 µM] | -11.3%
NCCCC(=O)N1c2ccccc2Sc2ccccc21
 : -6.0% | -6.8%
O=C(NCc1cccs1)C1CCCN1C(=O)Nc1ccccc1Cl (centres undefined)
 : -14.9% | 3.9%
O=C(CN1C(=O)NC2(CCCC2)C1=O)NCCN1C(=O)S/C(=C\c2ccccc2F)C1=O
 : -29.0% | -14.8%
O=C(NN1CCOCC1)c1ccccc1Br
 : i | -18.9%
Cc1ccc(S(=O)(=O)N(CC(=O)N2CCOCC2)c2ccc(Br)cc2)cc1
 : -20.0% | -2.4%
Cc1cc(OCc2cc(C(=O)N(C)C3CCOCC3)no2)cc(C)c1Cl
 : -10.2% | -27.6%
COc1ccc(N2CCN(C(=O)CSc3nnnn3-c3ccc4c(c3)OCCO4)CC2)cc1
 : -29.9% | -27.5%
C[C@@H]1CC[C@]2(C(=O)O[C@@H]3O[C@H](CO)[C@@H](O)[C@H](O)[C@H]3O)CC[C@]3(C)C(=CCC4[C@@]5(C)C[C@@H](O)[C@H](O)[C@@](C)(C(=O)O[C@@H]6[C@H](O)C[C@@]7(C)C(CC[C@]8(C)C7CC=C7[C@H]9[C@](C(=O)O[C@@H]%10O[C@H](CO)[C@@H](O)[C@H](O)[C@H]%10O)(CC[C@@H](C)[C@@]9(C)O)CC[C@]78C)[C@@]6(CO)C(=O)O)C5CC[C@]43C)[C@@H]2[C@]1(C)O (some centres undefined)
 : -11.7% | 0.0%
COc1ccccc1NC(=O)C1=C(C)NC2=C(C(=O)CC(c3ccc(OC)c(OC)c3)C2)C1c1coc2ccccc2c1=O (centres undefined)
 : -15.1% | -22.7%
O=C(CCC1CCCCC1)NNC(=O)c1cnccn1
 : -29.8% | -8.5%
Cc1cccc(-n2c(C)nc3c(cnn3-c3ccc(F)cc3)c2=O)c1
 : ? | ?

# Next compounds follow:
# Fields – VACV mCherry inh | VACV Venus inh
CCOC(=O)c1cc(-c2ccc(OC)cc2)n(CCC(=O)Nc2cccc(C)c2C)c1C
 : -7.5% | -11.8%
COc1ccc(CN(Cc2ccco2)c2cnc(S(C)(=O)=O)nc2C(=O)Nc2ccc(C)c(C)c2)cc1
 : -14.2% | -3.0%
Nc1nc(CSc2nnnn2-c2ccccc2)nc(N2CCCc3ccccc32)n1
 : ? | -28.5%
COc1ccc(-c2c(-c3ccccc3OC)sc3ccccc23)cc1
 : i | -9.3%
COc1ccc(NC(=O)CC2C(=O)N(c3ccccc3)C(=O)N2CCC2=CCCCC2)cc1 (centres undefined)
 : -10.0% | -11.6%
COc1cccc(NC(=O)C2(C)CCN2CC2CCCCC2)c1 (centres undefined)
 : i | 10.1%
O=C(N/N=C/c1ccc(OC(=O)c2ccc(Br)cc2)cc1)c1ccncc1
 : i | -17.0%
Cc1ccc(/C=N/OC(=O)c2nn(C)cc2Cl)cc1
 : 15.3% | 5.0%
COC(=O)c1cc(C)nc2c1c(=O)nc(SCc1ccccc1C)n2C1CC1
 : -9.4% | -7.6%
Cc1nc(C)c(C(=O)N/N=C/c2c[nH]c3ccccc23)s1
 : ? | -25.7%
CC(=O)c1ccc(NC(=O)COC(=O)CCC(=O)c2cccs2)cc1
 : i | -3.4%
CC(=O)Nc1cc(-c2ccccc2CN(C)C)cn2c(-c3ccc(C(C)=O)cc3)cnc12
 : -9.9% | -23.7%
COc1ccc(CNC(=O)c2ccc(Cl)c(NC3=NC4CS(=O)(=O)CC4S3)c2)cc1 (centres undefined)
 : i | -15.0%
C(=C\c1sc(Nc2ccccc2)n[n+]1-c1ccccc1)/c1ccccc1
 : ? | 8.91µM*
O=C(Nc1cc(Cl)c(O)c(Cl)c1)C1CCCO1 (centres undefined)
 : -17.7% | -8.9%
COCCCNC(=O)c1ccc(Cn2c(=O)c3ccccc3n(CC(=O)NCCc3ccc(OC)c(OC)c3)c2=O)cc1
 : -0.5% | 2.7%
COC(=O)c1cccc(NC(=O)N2C[C@H]3C[C@@H](C2)c2cccc(=O)n2C3)c1
 : 12.3% | 9.5%
CC1CCN(C(=O)Cn2cc(C(=O)C3CC3)c3ccccc32)CC1
 : . | -11.8%
O=C(COC(=O)/C=C/c1ccccc1)NC1CCCCC1
 : i | -5.9%
COc1ccccc1NC(=O)CSc1ccc(-c2ccco2)nn1
 : -18.6% | -13.6%
O=C(COC(=O)c1n[nH]c(=O)c2ccccc12)c1ccc(Br)cc1
 : -8.5% | -0.7%
Fc1ccccc1NC(=S)Nc1cccnc1
 : -1.9% | -10.9%
Cc1ccc(NC(=O)CSc2ccc(Br)cc2)cc1S(=O)(=O)N1CCOCC1
 : ? | -15.0%
Cc1ccc(S(=O)(=O)N2CCN(C(=O)COC(=O)/C=C/c3cccc([N+](=O)[O-])c3)CC2)c(C)c1
 : -11.7% | -4.1%
Cc1nc(-c2ccc3c(c2)OCCCO3)cs1
 : i | -7.1%
COc1ccc(CCNC(=O)C2CCN(C(=O)N(C)C)CC2)cc1OC
 : 4.0% | -1.6%
Cc1c(C(=O)NCc2ccccc2Br)oc2ccc3c(c12)C(=O)CC(C)(C)O3
 : -18.0% | -11.1%
Cc1ccc(S(=O)(=O)CC(=O)Nc2ccccn2)cc1
 : -14.5% | -19.4%
C[C@H](CO)N1C[C@H](C)[C@@H](CN(C)Cc2cccc(C(=O)O)c2)Oc2cc(Br)ccc2S1(=O)=O
 : i | -11.5%
CCc1c(C(=O)NNC(=S)NC2CCCCC2)csc1C
 : -7.2% | -14.1%
CCN(CC(=O)Nc1ccc(NC(C)=O)cc1)C(=O)C1CCC1
 : -6.2% | 8.1%
CCOC(=O)COc1nc2c(c(-c3ccco3)c1C#N)CCc1ccccc1-2
 : -11.6%[7.34 µM] | 2.2%[7.34 µM]
Clc1ccc(-c2n[nH]c3c2CCCC3)cc1
 : i | 0.7%
COc1cc2[nH]c(=O)n(CCCCCC(=O)NCCCN3CCOCC3)c(=O)c2cc1OC
 : -13.0% | -6.1%
O=c1cc(C(F)(F)F)[nH]c2c(C(F)(F)F)cccc12
 : ? | 12.6µM*
CC1(C)Cc2c(cnn2-c2ccccc2)C(NC(=O)CCc2ccncc2)C1 (centres undefined)
 : -8.9% | -7.7%
COc1cc(C(=O)NCCOc2ccccc2)cc(OC)c1OC
 : -15.5% | -15.1%
Cc1cc(C)c(NC(=O)C(C)(C)C)c(Cl)c1
 : . | -10.1%
CCOC(=O)c1ccc(S(=O)(=O)N2CCC(N3CCCCCC3)CC2)cc1
 : i | -9.7%
Cc1ccc(S(=O)(=O)N2CCOC2C(Cl)(Cl)Cl)cc1 (centres undefined)
 : -16.0% | -13.8%
CCc1noc(C)c1C(=O)Nc1nc(-c2ccccc2)cs1
 : -1.0% | -19.8%
Cc1noc(C)c1C(=O)OC(C)C(=O)c1c[nH]c2ccccc12 (centres undefined)
 : -7.7% | -10.5%
COc1ccccc1-c1nnc(SCc2nc3ccccc3[nH]2)n1C
 : -7.3% | -5.8%
Cc1ccc(C)c(N2CCN(S(=O)(=O)c3ccc4c(c3)n(C)c(=O)c(=O)n4C)CC2)c1
 : -16.8% | -14.6%
Cc1cccc2cc(/C=C3\N=C(c4ccccc4)OC3=O)c(N3CCOCC3)nc12
 : i | -23.4%
O=C(O)c1cc2sccc2s1
 : -16.3% | -6.0%
CCOc1cccc(OCCCCn2cnc3ccccc3c2=O)c1
 : i | 9.1%
COc1ccc(/C=C2\SC(=Nc3ccccc3Cl)NC2=O)c(OC)c1
 : -14.3% | -29.4%
COc1ccc(NC(=O)Cn2c(=O)oc3cc(S(=O)(=O)N4CCCC4)ccc32)c(OC)c1
 : -3.0% | -7.2%

# High-throughput results: PubChem, National Center for Advancing Translational Sciences (NCATS)
